# GIRK2 act: GIRK2 channel activation; P48051; 63,000 tested, 0.05% active; calls only for hits at 25 µM; HEK293-GIRK2 thallium flux, Thallos fluorescence;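 active = among the strongest 0.2% of first-round signals and kept after retests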;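 also: first round at about 10 µM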
# Target sequence (P48051 whole entry, looked up): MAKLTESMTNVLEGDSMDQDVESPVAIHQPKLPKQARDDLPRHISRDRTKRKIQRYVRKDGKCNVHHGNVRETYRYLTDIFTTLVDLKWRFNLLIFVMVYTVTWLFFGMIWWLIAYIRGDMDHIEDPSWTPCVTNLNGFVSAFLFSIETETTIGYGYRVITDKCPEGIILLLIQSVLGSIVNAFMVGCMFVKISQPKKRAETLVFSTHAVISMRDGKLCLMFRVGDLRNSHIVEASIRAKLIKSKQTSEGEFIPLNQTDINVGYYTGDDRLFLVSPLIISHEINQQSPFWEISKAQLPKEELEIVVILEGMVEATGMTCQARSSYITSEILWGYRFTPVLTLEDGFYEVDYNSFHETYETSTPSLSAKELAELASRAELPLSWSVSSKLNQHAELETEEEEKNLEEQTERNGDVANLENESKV
# Calls only; i = inactive.
compound | GIRK2 act
Cc1cccc(S(=O)(=O)Nc2ccc3c(c2)N(S(=O)(=O)c2ccccc2)CCC3)c1 | i
Cc1ccc(NC(=O)Cn2c(C)cc(C)c(-c3nc(-c4ccc(F)cc4)no3)c2=O)cc1C | i
COc1ccc(S(=O)(=O)N2CCCCC2CC(=O)NC2CCCCCC2)cc1 (configuration not stated) | i
O=C(c1cccs1)N1CCC2(CC1)OCCCO2 | i
Cc1noc(-c2cccn(Cc3noc(-c4ccco4)n3)c2=O)n1 | i
CC1SC(C)C(=O)N(CC(=O)NCc2ccco2)C1=O (configuration not stated) | i
O=C(NCc1ccc(C(O)c2cccs2)s1)C(=O)Nc1ccccc1Cl (configuration not stated) | i
COc1ccccc1N1CCN(C(=O)Cn2nc3c(Oc4ccccc4)nccn3c2=O)CC1 | i
O=C(Nc1nccs1)C1CCCN(c2ccc(-c3ccco3)nn2)C1 (configuration not stated) | i
CC(=O)c1ccc(NC(=O)CSc2cc(C)nc3c(-c4ccccc4)c(C)nn23)cc1 | i
CCCC/C=C\CCCCCCCC(=O)OC | i
COC(=O)c1ccc(C2CCN(C(=O)c3ccc4c(c3)OCO4)CC2)cc1 | i

# Additional entries:
compound | GIRK2 act
O=C(Cn1cccc(S(=O)(=O)N2CCOCC2)c1=O)NCc1ccc(Cl)cc1 | i
CC(=O)c1ccc(NC(=O)Cn2c(=O)nc(-c3ccccc3)c3ccccc32)cc1 | i
Cc1cccc(N2CCCn3c2nc2c3c(=O)n(CC(N)=O)c(=O)n2C)c1C | i
CC(C)Oc1ccc(C(=O)N2CCN(CCn3ccnc3)CC2)cc1 | i
C=C(C)C1(O)OC(=O)C=C1OC (configuration not stated) | i
Cn1nc(N2CCC(C(=O)NCCc3c[nH]c4ccccc34)CC2)ccc1=O | i
Cc1ccc(C)c(S(=O)(=O)NC2CCCC(OC(=O)Nc3ccccc3)C2)c1 (configuration not stated) | i
O=C(CCc1csc(NC(=O)NC2CCCCC2)n1)NC1CCCC1 | i
COc1ccc(C2(CNC(=O)c3ccc(OC)c(OC)c3)CCCC2)cc1 | i
C=CCc1ccc(OC)c(OC(C)c2nc3ccccc3[nH]2)c1 (configuration not stated) | i
Cc1cccc(CS(=O)(=O)Nc2ccc3c(c2)C(=O)NCC3)c1 | i
O=c1ccc2cc(S(=O)(=O)N3CCN=C3Cc3ccccc3)ccc2o1 | i

# Continued:
compound | GIRK2 act
O=C(CNC(=O)c1ccccc1)NCC#CCOc1cccc(C(F)(F)F)c1 | i
COc1ccc(Cl)cc1NC(=O)NCCNc1cc(-n2cccc2)ncn1 | i
Fc1ccccc1Cn1c(-c2ccco2)nc2ccccc21 | i
COc1ccccc1-c1ccc(N2CCC(NC(=O)C3COc4ccccc4O3)CC2)nn1 (configuration not stated) | i
O=C(CSc1nnc(-c2cccc(S(=O)(=O)N3CCCCC3)c2)o1)c1ccccc1 | i
CCc1nc(-c2ccc(N3CCN(C(=O)CSc4nc5ccccc5s4)CC3)nc2)no1 | i
O=C(Cn1nc(C(=O)N2CCOCC2)cc1-c1cccs1)NC1CCCC1 | i
Cc1ccc(S(=O)(=O)Nc2ccccc2C(=O)Nc2ccc3c4c(cccc24)CC3)cc1 | i
Cn1nccc1C(=O)NC1CCN(c2ccc(-c3ccccc3Cl)nn2)CC1 | i
Cn1c(=O)c2cc(C(=O)NCCN3CCOCC3)n(Cc3ccco3)c2n(C)c1=O | i
CCCc1nnsc1C(=O)NCC1CCN(c2ccccn2)CC1 | i
COc1ccc(C)cc1Nc1nc(C(=O)NC2CC2)cs1 | i

# Following part
compound | GIRK2 act
COCCOC(=O)c1c(C)n(C)c2ccc(OC(=O)c3ccccc3OC)cc12 | i
Cc1cc(NC(=O)C2CCN(C(=O)c3cc(-c4ccco4)[nH]n3)CC2)no1 | i
O=C(Cn1cccn1)N1CC(c2nc(Cc3ccccc3)no2)C1 | i
COc1cc(/C=C/C(=O)NCC2CCN(C(=O)c3cccnc3)CC2)cc(OC)c1OC | i
Cc1noc(-c2ccc(=O)n(CC(=O)Nc3cc(C)on3)c2)n1 | i
COc1ccc(Cl)cc1NC(=O)Nc1ccc2c(c1)CCCN2C(=O)c1cccs1 | i
COc1ccc(NC(=O)c2csc(Cc3nc(-c4ccccc4)no3)n2)cc1OC | i
O=C(CSc1ccc(S(=O)(=O)c2ccccc2)nn1)Nc1cccc(Br)c1 | i
O=C(Nc1ccc2c(c1)N(C(=O)c1cccs1)CC2)c1ccc(OC(F)(F)F)cc1 | i
Cc1cc(=O)n2c(-c3cccc(NC(=O)c4ccccc4C)c3)csc2n1 | i
Cc1nnc(NC(=O)c2cc(=O)c(OCC(=O)Nc3ccccc3)co2)s1 | i
CSCC(C)(O)CNS(=O)(=O)c1ccc2oc(=O)n(C)c2c1 (configuration not stated) | i

# (cont.)
compound | GIRK2 act
O=C(NCCc1cccs1)c1cnn2c(-c3ccccn3)ccnc12 | i
O=C(Cn1nc2c3cc(F)ccc3ncn2c1=O)Nc1ccc2c(c1)OCO2 | i
COc1ccc(C(C)NC(=O)c2ccc(CS(=O)(=O)Cc3ccccc3F)o2)cc1 (configuration not stated) | i
Cc1cc(Nc2ccc(NC(=O)c3cnccn3)cc2)nc(N2CCCCC2)n1 | i
Cc1cccc([N+](=O)[O-])c1NC(=O)C1CCCN(c2ccc(-n3cccn3)nn2)C1 (configuration not stated) | i
O=C(c1c(F)cccc1F)N1CCN(C(=O)C2CC2c2ccc(F)cc2)CC1 (configuration not stated) | i
Cc1ccccc1NC(=O)CN1C(=O)C2(SCC(=O)N2c2cccc(Cl)c2)c2ccccc21 (configuration not stated) | i
O=C(CSc1ncc(CO)n1Cc1ccc(Cl)cc1)NCc1ccco1 | i
CON=C(C(=O)N[C@@H]1C(=O)N2C(C(=O)O)=C(COC(N)=O)CS[C@H]12)c1ccco1 | i
O=C(c1ccco1)N1CCN(C(=O)c2cnn(-c3ccccc3Cl)c2-n2cccc2)CC1 | i
COCCNC(=O)/C(C#N)=C1\N=C(NC(=O)c2ccc(F)cc2)c2ccccc21 | i
Cc1nc2ncccc2c(=O)n1-c1cccc(NC(=O)COc2ccccc2)c1 | i

# (next part)
compound | GIRK2 act
Cc1cccc(CC(=O)NCC2CCN(C3CCCC3)CC2)c1 | i
CCOc1ccccc1NC(=O)COc1nc(CC)nc2ccccc12 | i
Cc1nc(Nc2ccccn2)cc(N2CCN(S(=O)(=O)c3ccccc3Cl)CC2)n1 | i
CCOC(=O)c1cccc(NC(=O)CSc2nnc3ccc(C(=O)Nc4cccc(F)c4)cn23)c1 | i
CCCN1CCCc2cc(CCNC(=O)C(=O)Nc3ccc(NC(C)=O)cc3)ccc21 | i
COc1ccc(F)cc1S(=O)(=O)NCCCn1ncccc1=O | i
Cc1ccccc1NC(=O)Cn1cnc2sc(-c3nc(-c4ccccc4)no3)c(C)c2c1=O | i
CS(=O)(=O)N1CCC(C(=O)NCC2CCC(c3nc4ccccc4[nH]3)CC2)CC1 (configuration not stated) | i
O=C(COc1cccc(C(F)(F)F)c1)NCCOc1cc(N2CCCCC2)ncn1 | i
CC(Oc1ccccc1)C(=O)Nc1c2c(nn1CC(=O)NCc1ccco1)CSC2 (configuration not stated) | i
COc1cc(NC(=O)Cn2ncn3nc(-c4ccccc4)cc3c2=O)cc(OC)c1 | i
CC(C)c1ccc(-n2nnc(C(=O)N3CCCCC3)c2-n2cccc2)cc1 | i

# Additional records:
compound | GIRK2 act
COc1ccc(Cc2nnc(NC(=O)Nc3cccs3)o2)cc1 | i
COc1ccc(/C=C/C(=O)Nc2ccc(C)cc2C)cc1Br | i
COC(=O)c1ccc(NC(=O)CSc2cc(-n3nc(C)cc3C)ncn2)cc1 | i
COc1ccccc1C1(CNC(=O)c2cccs2)CCOCC1 | i
Cc1ccc(S(=O)(=O)N2CCN(c3cccc(Cl)c3)CC2)cc1 | i
Cc1ccc(NC(=O)Cn2c(=O)n(Cc3ccc(F)cc3)c(=O)c3nccnc32)cc1 | i
COc1cccc(NC(=O)CN2C(=O)NC(CCC(=O)O)(c3ccccc3)C2=O)c1 (configuration not stated) | i
CC(=O)Nc1cccc(NC(=O)C(=O)NCCN2CCN(c3ccccc3F)CC2)c1 | i
COc1ccccc1OCC#CCNC(=O)c1ccc(OC(F)(F)F)cc1 | i
CC(C)CC(=O)OC(C)(C)C1Cc2c(ccc3ccc(=O)oc23)O1 (configuration not stated) | i
CNC(=O)Cc1ccc(-n2c(=O)c3ccccc3n(CC(=O)Nc3ccc(C)cc3Cl)c2=O)cc1 | i
O=C(Nc1cc2c(cc1[N+](=O)[O-])OCO2)c1cc2ccccc2oc1=O | i

# (next part)
compound | GIRK2 act
O=C(Nc1nc2c(s1)CN(C(=O)c1cc(C3CC3)on1)CC2)c1ccoc1 | i
CSc1ccc(CC(=O)N2CCC(Oc3nc4c(F)cc(F)cc4s3)CC2)cc1 | i
CCC(C)NC(=O)CCn1c(=O)c2ccccc2n2c(=O)n(C)nc12 (configuration not stated) | i
Cc1cc(C)nc(Nc2nc(CC(=O)Nc3cccc(NS(C)(=O)=O)c3)cs2)n1 | i
CC(=O)N1CCN(Cc2nc(-c3ccc(Cl)cc3)cs2)CC1 | i
O=C(NCC1(c2cccs2)CCOCC1)c1ccc(F)cc1F | i
CC(NS(=O)(=O)c1cccc(Cl)c1)C(=O)Nc1ccc(Br)cc1F (configuration not stated) | i
CCOc1ccccc1Nc1c(C(=O)N2CCCC2)cnc2nc(C)ccc12 | i
Cc1csc(SCC2CCN(S(=O)(=O)c3c(F)cccc3F)CC2)n1 | i
O=C(CSc1cc(NCc2ccc(Cl)cc2)ncn1)Nc1ccccc1Cl | i
O=C(NCCc1ccccc1)N1C2CCC1COC2 | i
Cc1ccc2nc(N(CCN3CCOCC3)C(=O)CCS(=O)(=O)c3ccccc3)sc2c1 | i

# Additional structures
compound | GIRK2 act
CCC(=O)O[C@H]1C(C)(C)[C@H]([C@@H](O)C(=O)OC)[C@]2(C)C(=O)[C@@]1(O)[C@H]1O[C@]13C1CC(=O)O[C@@H](c4ccoc4)[C@]1(C)CCC32 (some centres not stated) | i
CCOc1ccccc1NC(=O)N1CCN(Cc2nnnn2-c2ccc(C)cc2)CC1 | i
NC(=O)c1ccc(NC(=O)c2csc3nc(-c4ccc(F)cc4)cn23)cc1 | i
Cc1nnc(NC(=O)c2csc(Nc3ncccn3)n2)s1 | i
COc1ccc2c(=O)c(-c3ccc(Br)cc3)c(C)oc2c1 | i
O=S(=O)(c1ccc(-c2ccc(Cl)cc2)cc1)N1CCN(c2ccccc2)CC1 | i
Cc1ccc(S(=O)(=O)Nc2cc3c4c(c2)CCC(=O)N4CCC3)cc1 | i
COc1cccc2cc(-c3cc(=O)oc4ccc(Cl)cc34)oc12 | i
CCC(=O)Nc1ccc(S(=O)(=O)NCCN2CCN(c3ccccc3F)CC2)c(C)c1 | i
COC(=O)c1ccc(S(=O)(=O)Nc2ccccc2N2CCNC(=O)C2)cc1 | i
O=C(Nc1cnc(N2CCCC2)nc1)c1cc2ccccc2oc1=O | i
O=C(Nc1cnc(N2CCN(c3ccccc3)CC2)nc1)Nc1ccccc1Cl | i

# The results go on.
compound | GIRK2 act
CCCCOc1ccc(C(=O)Nc2ccc(-c3nc(C)no3)cc2)cc1 | i
COc1cccc(CNC(=O)Cn2cnc3nc(N4CCC(C(=O)NC(C)C)CC4)sc3c2=O)c1 | i
N#Cc1c(NC(=O)CCCS(=O)(=O)Cc2ccccc2)sc2c1CCC2 | i
COc1ccc(Nc2ncnc3c2c(C)c(C)n3Cc2ccco2)cc1 | i
COc1cccc(COc2ccc3c(=O)c(-c4ccccc4OC)coc3c2)c1 | i
CCOCCSc1nc2ccccc2[nH]1 | i
O=c1ccc(-c2ccccc2)nn1CCNS(=O)(=O)c1ccc(OC(F)(F)F)cc1 | i
O=C(Nc1ccc(Nc2cc(-n3ccnc3)ncn2)cc1)c1ccc(F)cc1F | i
C=CCn1c(=O)c2c(nc(NN)n2Cc2ccccc2)n(C)c1=O | i
CCc1cccc(CC)c1/C=C/c1cncc(C(=O)NC)c1 | i
CC(Cn1nc(-c2cccs2)ccc1=O)C(=O)NCCc1ccc(S(N)(=O)=O)cc1 (configuration not stated) | i
CCOC(=O)c1sc(NC(=O)c2ccc(N3CCCC3)nn2)nc1C | i

# Next section
compound | GIRK2 act
CCOc1cccc(-c2noc(CCn3nc(-c4ccc5c(c4)OCO5)ccc3=O)n2)c1 | i
O=C(N1CCOCC1CO)C1(c2cccs2)CCCC1 (configuration not stated) | i
Cc1ccc(NC(=O)c2coc(NC(=O)C3CCC3)n2)cc1F | i
COc1ccccc1N1CCN(CCNC(=O)c2cccs2)CC1 | i
COCCn1c(C(=O)N2CCCc3ccccc32)cc2c(=O)n(C)c(=O)n(C)c21 | i
O=C(O)Cn1cc(-c2ccc(Cl)cc2)ncc1=O | i
COc1ccc(NC(=O)CSc2nccn2-c2cccc(C(=O)NCc3ccco3)c2)cc1OC | i
C=C1[C@H](OC(C)=O)[C@H]2[C@@H](OC(C)=O)[C@](C)(OC(C)=O)C[C@]2(OC(C)=O)C(=O)[C@H](C)C=CC(C)(C)C(=O)[C@H](OC(=O)C(C)C)[C@H]1OC(C)=O | i

# These rows are one share of the data; rates above refer to the full screens.
